High-throughput results as filed in PubChem BioAssay.
MgcRacGAP = inhibition of MgcRacGAP-stimulated Rac1 GTP hydrolysis – biochemical, inorganic phosphate detection, orthogonal assay, confirmation (AID 652142) | MgcRacGAP/Rac1F28L GTP hydrolysis, Biomol green phosphate; stronger effect = higher value; test concentration not given here; none was called active though about 1 in 100 pass the limit | 2,400 tested, under 10 active | inhibition, %;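 active = inhibition over three standard deviations or about 65%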;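 note: full inhibition control lacks the GAP enzyme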
An asterisk follows results filed as active. The list is partial (hit frequency here may not be typical).

smiles | MgcRacGAP
CC(=O)c1ccc(NC(=S)Nc2ccc3[nH]c(=O)[nH]c3c2)cc1 | 22
CSc1sccc1/C=C(/C#N)C(=O)c1ccco1 | 20
CC(C)=NNc1cc([N+](=O)[O-])cc2c1C(=O)N(C)S2=O (stereo not drawn) | 32
COc1cc2c(cc1NC(=S)Nc1cccc3ccccc13)oc1ccccc12 | 21
c1cc(CNc2ccc3c(c2)OCO3)ccn1 | 25
Cc1c(C(=O)N/N=C/c2ccc(O)c(Br)c2)sc(N)c1C#N | 31
O=C(O)CCCNC(=O)/C=C/c1ccco1 | 24
CCC1=NN2C(=N)/C(=C\c3ccc(SCc4ccco4)o3)C(=O)N=C2S1 | 31
Oc1ccc(Nc2ncnc3ccccc23)cc1 | 20
COc1ccc(C(CNC(=O)c2cc3ccccc3cc2O)N2CCOCC2)cc1 (stereo not drawn) | 18
CN(C)c1ccc(C=c2c3cc(O)ccc3n3c2cc(-c2ccccc2)[n+]3C)cc1 | 84
CCOc1cc(/C=N/n2cnnc2)ccc1O | 24
OCCN1CCN(Cc2ccc3ccccc3c2)CC1 | 6
COCCCNC1=C(C#N)C(=O)NC(c2cccs2)S1 (stereo not drawn) | 40
CCOC(=O)CSc1nc(N)c(C(=O)Nc2ccc(N(C)C)cc2)s1 | 13
CCOc1cc(/C=N/NC(=O)c2ccc(NC(=O)C3CC3)cc2)ccc1O | 21
COc1cc(/C=N/NC(=S)Nc2cccc(C(=O)O)c2)ccc1O | 31
Cc1cc2[nH]c3c4ccccc4nc(C)c3c2cc1C | 53
Cc1c(O)ccc(NC(=O)/C=C/c2ccccc2)c1C | 31
Cc1ccc(S(=O)(=O)N2CCOCC2)cc1NC(=O)CNCc1cccnc1 | 22
Nc1ccc2nc(Cc3ccccc3)[nH]c2c1 | 26
COc1cccc(OC)c1NC(=O)CN1CCN(C)CC1 | 29
Cc1cccc2sc(NNC(=O)c3cc(=O)c4ccccc4o3)nc12 | 21
CCOc1cc(C=NNC(=O)CCCC(=O)NN=Cc2ccc(O)c(OCC)c2)ccc1O | 23
CCn1c2ccccc2c2cc(CNCc3ccc(OC)cc3OC)ccc21 | 27
Oc1cc(O)c2c(c1)O[C@H](c1ccc(O)c(O)c1)[C@H](O)C2 | 21
N=C1/C(=C\c2ccc(Br)o2)C(=O)N=C2SC(CC(=O)N3CCOCC3)=NN12 | 3
O=C1c2cccc(NCCNCCO)c2C(=O)c2cccc(NCCNCCO)c21 | 58
Cc1ccc(NCCN(C)C)c2c(=O)c3cc(O)ccc3sc12 | 31
COc1ccc(Cc2nnc(NC(=O)Cc3cccs3)s2)cc1 | 40
O=c1c2ccc(F)cc2sn1-c1ccccc1 | 77
CC(=O)Nc1cccc(-c2csc(NCc3ccccc3)n2)c1 | 26
CN(C)c1nc(=NCc2cccs2)ss1 | 69
Nc1ccc(N2CCN(c3ccc(F)cc3)CC2)cc1 | 42
CCOc1ccc(Nc2ccc(N)c(S(=O)(=O)O)c2)cc1 | 15
Cc1ccnc(Nc2nc(-c3ccc(O)cc3)cs2)c1 | 29
COc1cc(/C=C2\C(=O)N(c3cccc(C(=O)O)c3)N=C2C)ccc1OCc1ccccc1 | 39
COc1ccc(Br)cc1CN1CCC(N2CCCC2)CC1 | 9
COc1cc(/C=N/NC(=O)c2ccccc2NS(=O)(=O)c2cccs2)ccc1O | 19
Oc1ccc(N2CCN(C(c3cccs3)c3nnnn3CCc3ccccc3)CC2)cc1 (stereo not drawn) | 16
CCCS(=O)(=O)N1CCN(C2CCC(C)CC2)CC1 (stereo not drawn) | 5
CC(C)c1nc(SCC(=O)Nc2ccc(N(C)C)cc2)c2ccccc2n1 | 12
CCOC(=O)c1c(NC(=O)CN(C)C2CCN(C)CC2)sc(C(=O)Nc2ccccc2)c1C | 25
O=[N+]([O-])c1ccccc1OCCNCc1ccccc1 | 25
C=CCc1cc(C)ccc1OCCCn1ccnc1 | 21
COc1cccc(OC)c1OCCNC(C)(C)C | 22
COc1ccccc1/C=C(/C(=O)OCC(=O)Nc1ccc(N(C)C)cc1)c1ccccc1 | 7
CS(=O)(=O)C1=NSC2=NC(=O)/C(=C\c3ccc(OC(=O)c4ccco4)c(Br)c3)C(=N)N21 | 16
CCOc1cc(/C=C2\C(=O)N(Cc3ccco3)C(C)=C2C(=O)OC)ccc1O | 11
Cc1ccc(OCCN2CCN(C)CC2)c([N+](=O)[O-])c1 | 22

The results go on.
smiles | MgcRacGAP
COc1cc(/C=N/NC(=O)CCN2CCN(C(c3ccccc3)c3ccccc3)CC2)ccc1O | 24
COc1cccc(NS(=O)(=O)c2ccc3c(c2)C2C=CCC2C(c2ccc(C(=O)O)cc2)N3)c1 (stereo not drawn) | 30
Cc1cc(OCc2nc3ccccc3s2)ccc1N | 35
C#CCOCCOCCOCCNc1nc(N2CCN(C(=O)C([C@@H](C)O)n3cc([C@@H](N)CCCCN)nn3)CC2)nc(N2CCN(C(=O)[C@H](CO)n3cc([C@@H](N)C(C)C)nn3)CC2)n1 (stereo partly drawn) | 37
CCN(CC)c1ccc(NC(=O)C2CCCC2)cc1 | 22
CSc1ccc(/C=N/Nc2cccc(C(=O)O)c2)cc1 | 14
N#Cc1c(Nc2ccc(Cl)cc2)s[nH]c1=O | 64
COc1ccc(CCNC(=O)CNCC(c2ccccc2)N(C)C)cc1OC (stereo not drawn) | 42
CC1(C)CC(=O)C2=C(C1)OC1=C(C(=O)CC(C)(C)C1)C2c1ccc(O)cc1O | 53
N#Cc1ccccc1S(=O)(=O)N1CCN(C(=O)Cc2coc3cc(O)ccc23)CC1 | 29

Some of the entries so far, with the structure last:
MgcRacGAP | canonical_smiles
42 | COc1ccc(CCNC(=O)CNCC(c2ccccc2)N(C)C)cc1OC (stereo not drawn)
22 | CCN(CC)c1ccc(NC(=O)C2CCCC2)cc1
53 | CC1(C)CC(=O)C2=C(C1)OC1=C(C(=O)CC(C)(C)C1)C2c1ccc(O)cc1O
30 | COc1cccc(NS(=O)(=O)c2ccc3c(c2)C2C=CCC2C(c2ccc(C(=O)O)cc2)N3)c1 (stereo not drawn)

Other compounds:
smiles | MgcRacGAP
Cc1cccc(-n2c(=O)c3ccccc3n3c(=S)[nH]nc23)c1C | 16
Nc1ccc2nc(-c3ccc(Cl)cc3)[nH]c2c1 | 21
NC(CSS(=O)(=O)O)=NCCC12CC3CC(CC(O)(C3)C1)C2 | 34
CCOc1cc(/C=N/NC(=O)C2CCCC2)ccc1O | 28
Cc1ccc(C)n1/N=C1/NC(=O)CS1 | 11
CC(=O)c1c(Nc2ccc3c(c2)OCCO3)oc(C)cc1=O | 19
Cc1ccc(CN2CCN(CC3CC4C=CC3C4)CC2)cc1 (stereo not drawn) | 29
COc1cc(/C=N/Nc2nc(N3CCCC3)nc(N3CCCC3)n2)ccc1O | 28
COc1ccc(NC(=O)NS(=O)(=O)c2ccc(C)cc2)cc1OC | 19
Oc1ccc(C=NNc2nc3ccccc3s2)c(O)c1 | 32

2 compounds picked at random from the list so far:
smiles | MgcRacGAP
CCOc1cc(/C=N/NC(=O)C2CCCC2)ccc1O | 28
Nc1ccc2nc(-c3ccc(Cl)cc3)[nH]c2c1 | 21

Additional results follow:
smiles | MgcRacGAP
COc1cc(/C=N/NC(=S)NCCN2CCOCC2)ccc1O | 32
COc1ccc(NC2CCCN(C(=O)CSc3ccccc3)C2)cc1OC (stereo not drawn) | 19
COc1cc(N=Nc2c(C)n(C)n(-c3ccccc3)c2=O)ccc1N | 23
Cn1cccc1/C=N/N1CCN(c2ccccc2)CC1 | 24
CC1CC(C)CN(CC(=O)NC(c2ccccc2)c2ccccc2)C1 (stereo not drawn) | 19
Nn1c(=S)[nH]c2sc3c(c2c1=O)CCCC3 | 9
C=CCNCC(O)COc1ccc(C(C)=O)cc1OC (stereo not drawn) | 22
c1ccc(CNc2ccc(N3CCOCC3)cc2)cc1 | 30
CCN(CC)c1ccc(CN2CCC(C(=O)NCc3ccc(C)cc3)CC2)cc1 | 3
COCCNC(=S)Nc1cc(OC)c(OC)cc1C#N | 13
CN(CC(=O)NCc1ccccc1)Cc1cccc(F)c1 | 20
Cc1cc(O)ccc1N/C=C1\CCCC1=O | 28
COc1cc(/C=N/Nc2ccc(C(F)(F)F)cn2)ccc1O | 22
CCOC(=O)c1c(C)[nH]sc1=S | 14
CCN(CC)c1ccc(/C=N/N2CCOCC2)c(O)c1 | 33
Oc1ccc(/C=N/Nc2nn3cnnc3c3ccccc23)cc1 | 26
COc1cc(/C=C(\C#N)C(=O)c2c[nH]c3ccccc23)cc(OC)c1O | 20
COc1ccc(CNc2ncc(-c3ccc(F)cc3)n2C)c2ccccc12 | 17
CCOc1cc(/C=N/NC(=O)CN2CCCCC2)ccc1O | 30
O=C(CCl)NCCN1C(=O)S/C(=C\c2cccnc2)C1=O | 36
Oc1ccc(/C=N/Nc2ccnc3cc(Cl)ccc23)cc1O | 5
S=c1[nH]nc(Nc2ccccc2Cl)s1 | 22
Cc1cccc(NC2=C(C#N)C(=O)NC3(CCCC3)S2)c1 | 38
Cc1c(N2C(=O)/C(=C\c3ccc(N(C)C)cc3)N(C)C2=S)c(=O)n(-c2ccccc2)n1C | 20
CCOC(=O)c1c(C)[nH]c(C(=O)CN2CCN(CC)CC2)c1C | 35
CCN(CC)c1ccc(NC(=O)c2ccc(Br)o2)cc1 | -3
Cc1ccc(C2CC(=O)N3CN(c4ccc(Br)cc4)CSC3=C2C#N)o1 (stereo not drawn) | 37
COc1cc(/C=C/C(=O)OCC(=O)NC(=O)NC(C)C)ccc1O | 28
COc1cc(/C=N/N=C(\N)c2nonc2N)ccc1O | 20
O=[N+]([O-])c1ccc(N2CCN(CCOCCO)CC2)c([N+](=O)[O-])c1 | 27
Cc1cc(/C=N/Nc2ccc([N+](=O)[O-])cn2)c(C)n1-c1ccc(C(=O)O)cc1 | 54
CN1/C(=N\O)c2cccc3cccc1c23 | 27
O=C(c1ccccc1F)N1CCN(Cc2ccccc2F)CC1 | 15
COc1cc(/C=N/NC(=O)C(=O)N2CCCC2)ccc1O | 24
Oc1ccc(-c2csc(-c3cccnc3)n2)c(O)c1 | 15
O=c1c2ccccc2sn1-c1ccc(F)cc1 | 74
Clc1ccc(CNc2ccc(N3CCN(Cc4ccccc4)CC3)cc2)cc1 | 28
Cc1ccc(S(=O)(=O)c2cc(Nc3ccccc3)ccc2O)cc1 | 12
CN=c1scc(-c2ccc(F)cc2)n1/N=C/c1ccc(O)c(O)c1 | 15
Cn1cccc1/C=C1\SC(=Nc2ccc(O)cc2)NC1=O | 27
COc1cc(/C=C2\Oc3cc(O)ccc3C2=O)ccc1O | 36
Cn1c(-c2ccccc2)cnc1NCc1ccc(-c2ccccc2)cc1 | 20
CCOc1ccccc1CN1CCC(N2CCOCC2)CC1 | 21
COc1ccc(NS(=O)(=O)c2cccc(C(=O)NN=Cc3ccc(O)c(OC)c3)c2)cc1 | 24
CCN(CC(=O)NCc1ccc(F)cc1)C(=O)CN1CCN(c2ccc(OC)cc2)CC1 | 29
COc1cc2c(cc1NC(=S)Nc1ccccc1C)oc1ccccc12 | 16
CN(C)c1ccc(Sc2ccc3nc(N)nc(N)c3c2)cc1 | 29
CCOc1cc(/C=N/NC(=O)c2c(-c3ccccc3)noc2C)ccc1O | 26
COc1cc2[nH]c(=S)nc(Nc3ccc(NC(C)=O)cc3)c2cc1OC | 47
CCS(=O)(=O)c1cc([N+](=O)[O-])c(Sc2ccccc2N)s1 | 24

More records
smiles | MgcRacGAP
Nc1nc(=S)c2[nH]c(=S)[nH]c2[nH]1 | 36
Cc1nc(C/C(=N\N)c2ccc(O)cc2O)cs1 | 39
O=C(CN1CCN(c2ccccn2)CC1)Nc1ccc(F)cc1 | 33
O=C(c1ccc(F)cc1)N1CCN(C2CCCCC2)CC1 | 9
CCOC(=O)c1nc(Nc2ccc(Nc3ccccc3)cc2)c2ccccc2n1 | 32
COc1ccc(NCC(O)COc2ccc(C(C)(C)C)cc2)cc1 (stereo not drawn) | 13
C/C(=N\NC(=O)c1ccccc1F)c1ccc2c(c1)Nc1ccccc1S2 | 21
C=C(CN(C)C)C(=O)c1cc(OC)c(OC)cc1OC | 6
CN(C)c1ccc(NS(=O)(=O)c2cc(Cl)ccc2Cl)cc1 | 4
CCOC(=O)Nc1ccc(OC(=O)Oc2ccc(NC(=O)OCC)cc2)cc1 | 31
Cc1cnc(C(=O)Oc2ccc(-c3ccccc3)cc2)cn1 | 24
COC(=O)C1C(O)=C(C=Nc2ccc(N)cc2)C(=O)CC1(C)C (stereo not drawn) | -4
COc1cc(-c2ncc3ccccn23)cc(OC)c1OC | 18
O=C(CCC1CCCC1)N1CCN(C2CCCC2)CC1 | 8
COc1cc(/C=N/NC(=O)CC(=O)NC2CCCCC2)ccc1O | 30
O=C1/C(=C/c2ccc(O)c(O)c2)Oc2cc(O)ccc21 | 25
COc1ccc(/C=N/Nc2cc(C)nc3c(C)cccc23)cc1 | 36
CN(c1ccc(O)cc1)c1nc(-c2cccnc2)cs1 | 29
Cc1nn2cc(-c3ccc(N)cc3)nc2s1 | 22
Cc1cc(C)nc(SCC(=O)c2ccc(O)c(O)c2)n1 | 20
COc1ccc(CN2CCN(CCCCOc3ccc(Cl)cc3)CC2)c(OC)c1OC | 18
COc1ccccc1CNCC(=O)NCc1ccc(C)cc1 | 17
Cc1ccc(/C=[N+](\[O-])c2ccc(N(C)C)cc2)c2nsnc12 | 28
CC1=NN(c2ccccc2)C(=O)/C1=C/C=C/c1ccc(N(C)C)cc1 | 26
CCN(Cc1ccncc1)Cc1ccc(OC)cc1OC | 18
COc1ccc(NC2CCCN(C(=O)COc3ccc(C(C)=O)cc3)C2)cc1 (stereo not drawn) | 6
CCN(CC)CCCNc1ccc2ncn3c4ccc(O)cc4c(=O)c1c23 | 60
O=c1c(-c2cccc(Cl)c2)c[nH]n1-c1ccccc1 | 16
CN1/C(=C\C=N\NC(=O)c2ccc(O)cc2)C(C)(C)c2ccccc21 | 23
CN(C)c1ccc(NC2=C(Cl)C(=O)c3ccccc3C2=O)cc1 | 22
Cc1ccccc1CN(C)CCc1ccccn1 | 29
